Screening data as filed in PubChem BioAssay.
NPYLR7 agonist: activates Aedes aegypti NPYLR7 receptor. HEK293T NPYLR7/Galpha15, GCaMP6s calcium fluorescence. activation, % at 10 µM. actives 0.15% (n = 270,000); in the data active means activation above about 40%;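 further: 0% = vehicle and 100% = reference agonist at the receptor; some compounds past the cut are filed as inactive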
NPYLR7 agonist max-min: second read-out of NPYLR7 agonist, no call of its own (marks repeat the call); activation, %; measured here: Max-Min RFU normalised activation; some inactives read as strong as hits;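 span of the calcium signal over five minutes; 0% = vehicle and 100% = native peptide agonist; compound fluorescence can raise it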
* = called active by the depositor; & = joins results of further samples. Only part of the results is shown, so the mix of outcomes need not match the whole.

SMILES	NPYLR7 agonist	NPYLR7 agonist max-min
CSCCC(C(=O)O)N1C(=O)/C(=C\c2ccc(-c3ccc([N+](=O)[O-])cc3)o2)SC1=S (stereo not given)	3	11
CC(=O)Nc1ccc(F)c(C(=O)Nc2cc(Cl)cc(C)c2O)c1	7	5
CCOC(=O)C=Nc1c(N)n(C)c(=O)n(C)c1=O	5	4
CC(NC(=O)c1cccs1)C(=O)NCc1ccccc1OC(F)F (stereo not given)	10	5
COC(=O)c1cn(CCOc2ccc(C#N)cc2)c(C)n1	-1	19
O=C(CCc1ccc(S(=O)(=O)N2CCOCC2)cc1)NC1CCCCCCC1	6&0	3&-2
c1sc(NCC2CCCO2)nc1C12CC3CC(CC(C3)C1)C2 (stereo not given)	-1&-14	3&-20
Cc1cc(Cc2ccc(S(=O)(=O)NC3CCCC(C)C3C)cc2)c(=O)[nH]n1 (stereo not given)	-1	-3
COc1ccccc1N=c1oc2ccc(Br)cc2cc1C(N)=O	-2	-6
CCCOC(=NCCC(C)C)NC(=O)c1ccccc1F	0	4
O=C(NCCc1nc2ccccc2s1)c1cn2c(n1)CNCC2	25	10
Cc1nc(C)c(Cc2cccc(Cl)c2)c(N2CCN(C(=O)c3ccc(F)cc3)CC2)n1	4	6
COc1ccc(CCSc2nnc(N)s2)cc1	-4	-5
COc1ccccc1C(=O)N(Cc1c(-c2ccc(F)cc2)noc1N1CCN(C)CC1)CC1CCCO1 (stereo not given)	-1	-1
O=C(COC(=O)c1ccccc1NCc1ccco1)NC(=O)C1CCCCC1	14	7
Brc1cccc(-c2nnc(SCc3nc4ccccc4[nH]3)o2)c1	1	2
CCN(CC)C(=O)[C@@H]1C[C@H](N)CN1C(=O)c1cc2c(s1)CCCCC2	-6	-9
CC(NC(=O)c1cc(Cl)ccn1)c1cccc(OC(F)F)c1 (stereo not given)	-3	-3
CCOc1nc(-c2cccc(C(F)(F)F)c2)n(-c2cccc(NC(=O)Nc3ccccc3C)c2)n1	-3	16
Cc1ccc2c(c1)CCCN2C(=O)CCCn1nc(-c2ccc(F)cc2)ccc1=O	2	7
CCOC(=O)C1C(=O)C=C(c2ccc(OC)cc2)CC1c1ccco1 (stereo not given)	11	16
Cc1ccc(C(=O)N2C(C(=O)NC(C)c3ccccc3)COC23CCN(C(=O)c2cccs2)CC3)cc1 (stereo not given)	-3	4
O=C(CC1C=CCC1)NC1CCc2[nH]c3c(Cl)cccc3c2C1 (stereo not given)	10	6
CCCCCCc1cc2c(=O)c(-c3ccc(Br)cc3)coc2cc1OC	-16	-20
Cc1c(C(=O)NCCN(C)C)cnn1-c1ccccc1	-2	22
O=C(CCC(F)(F)F)N1CCCC(N2CCN(c3cccc(Cl)c3)CC2)C1 (stereo not given)	2	0
CC(c1ccccn1)N(C)C(=O)Cn1cc(C(F)(F)F)ccc1=O (stereo not given)	3	2
CN1CCN(NC(=O)CN2C(=O)/C(=C/c3ccccc3F)SC2=S)CC1	7	18
CCCSc1ccccc1-n1cnnc1	21	13
COC(=O)CN(C)Cc1cnc(S(C)(=O)=O)n1CC(C)C	3	-2
COC(=O)C1=C(C)NC2=C(C(=O)CC(c3ccccc3)C2)C1c1cccc(O)c1 (stereo not given)	-2	-2
O=C1C(=Cc2ccccn2)SC(=S)N1CC1CCCO1 (stereo not given)	10	5
CCc1nc(NC(=O)NCCc2nc(-c3ccccc3)cs2)nn1C	13	9
Cc1ccc(F)cc1-c1nc(NCC2CC2)nc2ccsc12	9	2
CN(C)C(CNC1CCC(C#N)(c2ccccc2)CC1)c1c(F)cccc1Cl (stereo not given)	7	4
COCCN1C(=O)CC2(C1=O)C(=O)N(CCn1cnc3c1c(=O)n(C)c(=O)n3C)c1ccc(F)cc12 (stereo not given)	-3	-6
O=C(CSc1ccc(-c2ccc(-n3ccnc3)cc2)nn1)NC1CCCCC1	10	9
CCN1CCc2nc(NC(=O)C3CCC(C(C)(C)C)CC3)sc2C1 (stereo not given)	5	4
CC(C)S(=O)(=O)C(C)C(=O)NCCOc1ccc(C(F)(F)F)cc1 (stereo not given)	1	16
Cc1nonc1CN(C)C(=O)CC1C(=O)NCCN1Cc1cccc(Oc2ccccc2)c1 (stereo not given)	-2	-2
O=C(NCC1CCCO1)C(=O)NC1CC1 (stereo not given)	2	11
Cc1onc(-c2ccccc2Cl)c1-c1n[nH]c(CCc2ccccc2)n1	2	-1
Cc1c(C(=O)N=c2sccn2C)[nH]c2c1C(=O)CCC2	8	1
CC(C)Cc1cc(CN2CCCC(OCc3cccnc3)C2)[nH]n1 (stereo not given)	5	3
COCCOCC(=O)NC1CCc2[nH]c3cc(Cl)cc(Cl)c3c2C1 (stereo not given)	14	7
CC12CCCCC1c1ccccc1C(CC(N)=O)=N2 (stereo not given)	1	34
COc1cccc(CN(Cc2ccc(F)cc2)CC(O)COCC(C)C)c1 (stereo not given)	-6	3
CC1CN(C(=O)Nc2nn(C(C)(C)C)cc2C#N)CCO1 (stereo not given)	0	27
Cc1cc(C(=O)N2CCC2(C)C(=O)Nc2ccc3[nH]ncc3c2)nn1C (stereo not given)	4	1
CC1(C(=O)NS(=O)(=O)c2cccc(OC(F)F)c2)CCN1C(=O)CC(c1ccccc1)c1ccccc1 (stereo not given)	-1	-9
CC(=O)N1CN(CCN2CCOCC2)Cc2c1sc1c2CCCC1	0	24
CS(=O)(=O)OCCCCOS(C)(=O)=O	-7&-1	-12&-8
Cc1noc(C)c1C(=O)N1CCN(CC(OCc2ccc(C#N)cc2)c2cccc(N3CCCC3)c2)CC1 (stereo not given)	3	-3
COc1cc(Cn2nc(C(C)C)c3cnn(-c4ccccc4)c3c2=O)cc(OC)c1	7	5
O=C(NCCCOC1CCCCC1)c1cc2cc(Cl)ccc2o1	-6	17
O=[N+]([O-])c1ccc(Cl)c(C2c3cccn3CCCN2Cc2cc(Cl)ccc2O)c1 (stereo not given)	22	24
Cn1nc(Nc2ccccc2N)cc1-c1ccccc1	-4	-4
O=C(Nc1cccc(-c2cccc(-c3ccc(F)cc3)n2)c1)c1cncc(Br)c1	5	12
COC(=O)c1ccc(/C=C2\SC(=Nc3cc(C)cc(C)c3)NC2=O)cc1	-2	-6
CC(C)CCn1cnc2c1c(=O)n(CC(=O)N1CCNC1=O)c(=O)n2Cc1ccccc1	4	1

Complete entries, looked up by structure. Order of screens: NPYLR7 agonist	NPYLR7 agonist max-min
`CCCCCCc1cc2c(=O)c(-c3ccc(Br)cc3)coc2cc1OC` in the list: -16	-20
`Cc1nc(C)c(Cc2cccc(Cl)c2)c(N2CCN(C(=O)c3ccc(F)cc3)CC2)n1` in the list: 4	6
`CC(NC(=O)c1cc(Cl)ccn1)c1cccc(OC(F)F)c1` (stereo not given) in the list: -3	-3
`COc1ccccc1C(=O)N(Cc1c(-c2ccc(F)cc2)noc1N1CCN(C)CC1)CC1CCCO1` (stereo not given) in the list: -1	-1
`COC(=O)C1=C(C)NC2=C(C(=O)CC(c3ccccc3)C2)C1c1cccc(O)c1` (stereo not given) in the list: -2	-2

(continued)
SMILES	NPYLR7 agonist	NPYLR7 agonist max-min
Cc1ccc(-n2cnnn2)c(S(=O)(=O)N2CCOCC2)c1	5	8
O=C(NC1CCCCCC1)N1CCN(C(c2ccc(F)cc2)c2ccc(F)cc2)CC1	34	30
Cc1ccc(F)cc1NC(=O)N1CCOC2(CNCCOC2)C1 (stereo not given)	11	4
CC(NC(=O)c1cc(-c2ccccc2)nn1-c1ccc(F)cc1)c1ccccc1 (stereo not given)	22	26
Brc1ccc2oc(=Nc3ccccc3)c(-c3nc4ccccc4[nH]3)cc2c1	0	-3
CCOC(=O)C1=C(C)NC(=O)NC1c1cc(OC)c(OC)c(OC)c1 (stereo not given)	2	-7
COc1ccc(N(Cc2nnc3n2CCCCC3)C(=O)Nc2cccc(C)c2)cc1OC	18	14
CCc1nc(C)cc(N2CCCC(C(=O)c3cccnc3)C2)n1 (stereo not given)	-5	-8
CCCCOCC(=O)N1CCC2(CC1)CNC(=O)C2	25	7
O=C(Nc1cccnc1)C1(c2cccc(Br)c2)CCCC1	-2	0
COc1ccc2c(CN3CCOCC(CN(C)C)C3)cn(C)c2c1 (stereo not given)	2	5
O=C(CCC1CCN(S(=O)(=O)c2ccc(Cl)s2)CC1)Nc1ccccc1	6	2
CNc1ncc(-c2ccc(O)c(OC)c2)c(-c2ccc(C)cc2)n1	14	2
CCNC(=O)CNC(=O)C1CCN(S(=O)(=O)c2ccc3c(c2)OCCO3)CC1	4	-1
Cc1c(C)c(C)c(S(=O)(=O)N2CCN(C3CCOC3=O)CC2)c(C)c1C (stereo not given)	4	2
OCC1(Cc2cccc(F)c2)CCN(c2cnccn2)CC1	4	4
CCOCCCNC(=O)c1cc(NC(=O)c2cccc([N+](=O)[O-])c2)ccc1N1CCN(c2ccccc2OC)CC1	24	27
OCc1ccc(CN2CCCC(COc3ccccc3F)C2)o1 (stereo not given)	24	9
CN(c1cc(Cl)nc(SCc2ccc(C(=O)NCCC(c3ccccc3)c3ccccc3)cc2)n1)C1CCCCC1	25	21
CN(CC(O)COc1ccc(Cl)cc1Br)C1CCCC1S(C)(=O)=O (stereo not given)	5	3
CCC(C(=O)N(Cc1cc(NC(=O)C2CCC2)ccc1N(C)C)C1CCCCC1)c1ccccc1 (stereo not given)	6	7
NCc1ccnc(N2CCN(c3ccc(F)cc3)CC2)c1	1	2
O=c1n(CCn2cccc2)nc(CC2CCNCC2)n1-c1ccccc1	0	-7
CCN(CC(=O)Nc1c(F)cccc1F)C(=O)c1cc(C)oc1C	1	1
COc1cc(C2=NC(=Cc3ccc(F)c(F)c3)C(=O)O2)cc(OC)c1OC	-1	6
COc1cc(CN2CCC(C(=O)NC(c3cccc(OC)c3)c3ccccn3)CC2)cc(OC)c1 (stereo not given)	11	-1
Cc1cccnc1C(NC(=O)C1CCN(C(=O)Nc2ccc(C(C)C)cc2)CC1)c1ccccc1 (stereo not given)	-8	-11
COC(=O)c1c(NC(=O)CSc2ccccn2)sc2c1CCCC2	6	2
COc1cc(/C=C2\C(=O)N(c3ccccc3)N=C2C)cc(Br)c1OC	-15	-20
O=c1c2c3c(sc2ncn1CC(O)COCc1ccc(Cl)cc1)CCCC3 (stereo not given)	-2	-3
O=C(NCc1ccco1)c1nn(-c2cccc(C(F)(F)F)c2)c(=O)n(Cc2ccc(F)cc2)c1=O	0	1
NC(=O)c1ccc(OCC(=O)C23CC4CC(CC(C4)C2)C3)cc1	4	3
Cc1cc(O)c(C(c2ccncc2)N2CCCCC2)c(=O)n1Cc1ccco1 (stereo not given)	7	5
O=C(NCCCn1ccnc1)c1cc2c(=O)n3ccccc3nc2s1	12	8
CCOC(=O)CC1=C(C(=O)OCC)C(c2cccnc2)C(C#N)C(=N)O1 (stereo not given)	-2	-6
CCN(CC)CCNc1ncnc2c1sc1nc(CC(C)C)c3c(c12)CC(C)(C)OC3	9	4
CN(CC1(c2ccccc2)CC1(C)C)C(=O)c1cn(C/C=C/c2ccccc2)nn1 (stereo not given)	2	1
COCCN(Cc1nc2cc(Cl)ccc2o1)C(=O)c1ccc(OC)cc1OC	-4	-3
CCOC(=O)c1c(CN2CCCCC2)n(-c2ccccc2)c2cc(Br)c(O)cc12	-11	-17
Cc1c(C(=O)NCc2cccs2)sc(=O)n1Cc1ccc(C(F)(F)F)o1	9	3
CS(=O)(=O)N1CCC(C(=O)OCc2cc(-c3ccc4c(c3)OCCO4)on2)CC1	-2	-2
Cc1cc(NC(=O)c2ccc(CN3C(=O)CC4(CCCC4)C3=O)cc2)ccc1Cl	2	13
Fc1ccc(-c2nnc3n2CCCCC3)cc1	3	2
Cc1cc(C(=O)N(C)Cc2ccncc2C)n[nH]1	-9	-12
Cc1csc(NC(=O)CN(C)CC2OCCO2)c1C#N	-14	-17

Of the compounds above, these contain an NH in an aromatic ring:
SMILES	NPYLR7 agonist	NPYLR7 agonist max-min
Cc1cc(Cc2ccc(S(=O)(=O)NC3CCCC(C)C3C)cc2)c(=O)[nH]n1 (stereo not given)	-1	-3
Brc1cccc(-c2nnc(SCc3nc4ccccc4[nH]3)o2)c1	1	2
O=C(CC1C=CCC1)NC1CCc2[nH]c3c(Cl)cccc3c2C1 (stereo not given)	10	6
Cc1onc(-c2ccccc2Cl)c1-c1n[nH]c(CCc2ccccc2)n1	2	-1
Cc1c(C(=O)N=c2sccn2C)[nH]c2c1C(=O)CCC2	8	1
CC(C)Cc1cc(CN2CCCC(OCc3cccnc3)C2)[nH]n1 (stereo not given)	5	3
COCCOCC(=O)NC1CCc2[nH]c3cc(Cl)cc(Cl)c3c2C1 (stereo not given)	14	7
Cc1cc(C(=O)N2CCC2(C)C(=O)Nc2ccc3[nH]ncc3c2)nn1C (stereo not given)	4	1
Brc1ccc2oc(=Nc3ccccc3)c(-c3nc4ccccc4[nH]3)cc2c1	0	-3
Cc1cc(C(=O)N(C)Cc2ccncc2C)n[nH]1	-9	-12

Remaining list, next part
SMILES	NPYLR7 agonist	NPYLR7 agonist max-min
CN(Cc1nc2c(cnn2C)c(=O)[nH]1)C1CCCCCCC1	2	16
CCn1c(O)c(C2=c3cc([N+](=O)[O-])ccc3=NC2=O)sc1=S	16	10
COc1ccc(CN2C(=O)C3(SC(NC(C)=O)=NN3C(C)=O)c3cc(C)ccc32)cc1 (stereo not given)	0	-3
Cc1ccc(Cc2nc(CN(CCC(C)C)CCC(C)C)cs2)cc1	14	22
COCCCNC(=O)c1cc(NC(=O)c2ccc(OC)cc2)ccc1N1CCN(c2ccccc2OC)CC1	-2	0
COc1cc(NC(=O)Cn2nc([N+](=O)[O-])c(Cl)c2C)c(OC)cc1Cl	-3	-6
COc1ccc(S(=O)(=O)N(C)C2CCCC2)cc1NC(C)=O	8	2
CCCC1=NS(=O)(=O)c2cc(NC(=O)c3ccccc3C)ccc2N1CC(C)C	-7	-10
COc1ccccc1NC(=O)Cn1nc(-c2ccc(C)cc2C)c2sc(C)nc2c1=O	6	4
Cc1ccc(CN2CCC(CN(C)Cc3ccc(C4CCCCO4)s3)CC2)o1 (stereo not given)	5	-4
CCCCCOC(=O)C1=C(C)NC2=C(C(=O)CCC2)C1c1ccccc1OCCC (stereo not given)	-6	-11
CCOC(=O)COC1CN(C(=O)COC(C)=O)CCC(=O)N(C)c2ccccc21 (stereo not given)	3	5
O=C(COc1ccccc1)Nc1cnn(CC(=O)N2CCC3(C=Cc4ccccc43)CC2)c1	31	12
